NPYLR7 ag – mosquito NPYLR7 agonism; 270,000 compounds, 0.15% hits; HEK293T NPYLR7/Galpha15, GCaMP6s calcium fluorescence; AID 1259423; activation, % at 10 µM; in the data active means activation above about 40%;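 further: 0% = vehicle and 100% = reference agonist at the receptor; some compounds past the cut are filed as inactive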
NPYLR7 ag max-min – also measured in NPYLR7 ag; calls as there; activation, %; measured here: Max-Min RFU normalised activation; some inactives read as strong as hits;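 span of the calcium signal over five minutes; 0% = vehicle and 100% = native peptide agonist; compound fluorescence can raise it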
* marks the source's active call; other numbers are inactive results; & = joins results of further samples. These rows are one share of the data. The share of hits here may be higher or lower than overall.

SMILES	NPYLR7 ag	NPYLR7 ag max-min
O=C(C1CCCN(c2ncccc2Cl)C1)N1CCN(c2ccccn2)CC1 (stereo not drawn)	12	2
O=C(Nc1cccc2c1C(=O)c1ccccc1C2=O)c1ccc(F)c(F)c1	6	3
Cc1nnc(NC(=O)CSc2nc(=O)n(Cc3ccccn3)c3c2CCC3)s1	-1	-3
COc1cccc(/C=N\n2c(N)c(C(=O)NCC(C)C)c3nc4ccccc4nc32)c1OC	9	-2
CC1(C(=O)NS(=O)(=O)Cc2cccc(Cl)c2)CCN1C(=O)C1CCCCC1 (stereo not drawn)	4	1
COC(=O)c1c(C)ccc(F)c1NS(=O)(=O)c1c(C)noc1C	10	7
CCCCCCCCc1ccc(CCC(N)(CO)CO)cc1	1	-4
CCOCCCN(CC(=O)N(CCOC)Cc1cccn1C)C(=O)c1ccc(Br)cc1	1	5
S=C(Nc1ccc(Cl)cc1)N1CCCC1	4	5
Cc1nc(C(=O)N(Cc2ccccc2)C(C)c2ccccn2)cs1 (stereo not drawn)	4	2
COc1ccc(Cl)c2sc(N(CCCN(C)C)C(=O)Cc3ccccc3)nc12	7	2
CC(C)c1cc(C2CCN(C(=O)c3cc(C(C)C)no3)CC2)[nH]n1	12	9
O=C(c1cc(=O)[nH]c2ccc(F)cc12)N1CCc2c(nc[nH]c2=O)C1	5	1
Fc1ccc(Nc2nc(-c3cccs3)nc3ccccc23)cc1	-1	8
O=C(Nc1ccc2c(c1)CN(Cc1cn[nH]c1C1CCCCC1)CC2)C1CCCO1 (stereo not drawn)	9	2
O=c1[nH]nc(C2CCCN(c3ncccn3)C2)n1-c1ccccc1 (stereo not drawn)	5	0
C=CCn1c(=O)c2c(nc3n2CC(C)=NN3CC(N)=O)n(C)c1=O	4	10
CC1CCCCN1Cc1nc2c(c(=O)n(C)c(=O)n2C)n1Cc1ccc(Cl)c(Cl)c1 (stereo not drawn)	0	-2
Cc1nnc2n1N=C(c1ccc(Cl)cc1)C(CC(=O)O)S2 (stereo not drawn)	-5	-5
C=CCSc1nnc(NC(=O)CC(C)C)s1	-8	1
Cc1nc(C2CC2)ncc1C(=O)N1CCOC(C(F)(F)F)C1 (stereo not drawn)	6	3
COC(=O)C1=C(C)N(C(C)C)C(=O)C1(NC(=O)C1CCCCC1)C(F)(F)F (stereo not drawn)	-11	-19
O=C(COc1cc(Cl)ccc1Cl)NCc1ccc(F)cc1	2	2
CC(C)c1nc(C(=O)N2CCc3ccc(NC(=O)C4(c5ccccc5)CC4)cc3C2)cs1	-1&3	-3&0
Cc1ccc(S(=O)(=O)N(CCc2ccccc2)CC(=O)Nc2ccc(C(N)=O)cc2)cc1	1	0
Cc1cc(C)n2nc(C(=O)N3CCc4c([nH]c5ccccc45)C3c3ccc(F)cc3)cc2n1 (stereo not drawn)	6&7	4&5
COC(=O)CC(NC(=O)c1sccc1Br)C1CC1 (stereo not drawn)	2	2
NC(=O)Cn1cnc2c(nnn2-c2ccccc2)c1=O	8	5
Cc1ccc(-c2noc(C(C)N3CCN(C(=O)C4(C)CCCO4)CC3)n2)cc1 (stereo not drawn)	5	2
Cc1c(C(=O)NCc2ccc(N3CCOCC3)nc2)[nH]c2c1C(=O)CC(C)(C)C2	3	1
Cc1cccc(C(=O)NCc2sccc2C)n1	9	5
CN(c1ccccc1-c1ccccc1)S(=O)(=O)c1cn(C)cn1	14	11
COc1ccc(Br)cc1CN(C)C(=O)c1c[nH]cc1C	4	2
C[C@H](N[C@@H](CCc1ccccc1)C(=O)O)C(=O)N1Cc2ccccc2C[C@H]1C(=O)O	5	9
CC(C)n1ncc2c(C(=O)Nc3ccncc3)cc(-c3ccc4c(c3)OCCO4)nc21	2	2
O=C(C1CC=CCC1)N1CCN(S(=O)(=O)c2ccccc2F)CC1 (stereo not drawn)	4	4
N#CCNC(=O)[C@H](CCc1ccccc1)NC(=O)C(c1ccccc1)n1cccc1 (stereo partly drawn)	6	-1
O=C(NCC(F)(F)F)C1CCCN(C2CCN(CCc3ccccc3)CC2)C1 (stereo not drawn)	7	1
COC(=O)c1ccc(C(=O)Nc2sc3c(c2-c2nc4ccccc4s2)CCN(C)C3)cc1	3	3
COc1ccc(C(=O)OCC(C)C)cc1S(=O)(=O)NC(C)(C)C	-1	-2
C=C(C)Cn1c(N2CCCC2)nc2c1c(=O)[nH]c(=O)n2C	0	-5
CC(C)C(NC(=O)c1ccccn1)c1nnc2n1CCN(C(=O)CCC(F)(F)F)CC2 (stereo not drawn)	3	2
Cc1cc(C(=O)COC(=O)c2ccc(Cl)s2)c(C)n1C1CC1	-1	2
CCC1CCC(N(C)C(=O)CNC(=O)C2CCCC2)CC1 (stereo not drawn)	4	5
COc1cc(Br)c(O)c(/C=N\n2c(C)n[nH]c2=S)c1	134*	172*
CCOc1ccc(NCc2nn3cc(-c4ccc(OC)c(OC)c4)c4c3n2CCCC4)cc1	8	7
CCN(C(=O)Nc1c[nH]c2ccccc12)c1ccccc1	7	2
O=C(NCCCn1nc(-c2ccc(F)cc2)ccc1=O)c1ccc(F)cc1	-2	-4
CN(C)c1ccc(-c2cc(N3CCN(C(=O)c4ccco4)CC3)ncn2)cc1	14	6
CC(NCCC(=O)Nc1ccc(C#N)cc1)c1ccccc1F (stereo not drawn)	8	3
CC(c1ccccc1)n1c(=O)c(C(=O)O)nn(-c2ccc(Cl)cc2)c1=O (stereo not drawn)	16	26
CC(C)C(Cc1ccccc1)C(=O)NCC(O)CN(C)C (stereo not drawn)	4	3
O=C(Nc1ccc([N+](=O)[O-])cc1)c1ccc(Br)s1	-2	-1
Cc1noc(C)c1S(=O)(=O)N(CCN(C)C)Cc1cccc(F)c1	-1	-2
O=C(NCCCn1ccnc1)c1nn2c(c1Cl)NC(c1ccccc1)CC2C(F)(F)F (stereo not drawn)	-6	-8
O=C1C(=O)N(CN2CCC(C(=O)Nc3ccc4c(c3)OCO4)CC2)c2ccc(F)cc21	-6	-7
O=C(CCc1ccccc1)N1CCN(c2ccc(-n3cccn3)nn2)CC1	-4	-10
CCC(CNC(=O)c1c(C)nn(C)c1C)c1ccccc1 (stereo not drawn)	1	0
CC(Nc1cccc2c1CCCC2)C(=O)N1CCN(C(=O)c2ccco2)CC1 (stereo not drawn)	7	3
CCCc1cnc2c(c1SCC(=O)Nc1nc3ccccc3s1)c(=O)n(C)c(=O)n2C	5	5
The list goes on:
SMILES	NPYLR7 ag	NPYLR7 ag max-min
COc1ccccc1-n1ncc2c(C(C)C)nnc(SCc3cccnc3)c21	-9	-15
CCc1ccc(-c2noc(-c3cc(Cl)ccc3OC)n2)cc1	-2	-1
O=C(O)c1cccnc1Nc1ccc(Cl)c(Cl)c1	-10	-11
O=C(c1cccc(Cl)c1)C1CCCN(S(=O)(=O)c2ccc(-c3ccon3)s2)C1 (stereo not drawn)	5	5
CSc1ccccc1NC(=S)NC1CC1	6	13
Cc1ccccc1OCC1CCCN(C(=O)c2ccc(=O)[nH]c2)C1 (stereo not drawn)	7	6
OCC1(O)CCN(c2ncccc2C(F)(F)F)CC1	0	-9
O=C(CSc1nnc(-c2ccco2)o1)N1N=C(c2cccs2)CC1c1ccco1 (stereo not drawn)	11	13
Cn1c(-c2nc(C(=O)NC3CC3)cs2)cc2ccccc21	2	-1
COc1ccc(CCCC(=O)N2CCC3(CCOCC3)CC2)cc1	6	2
N#CCCN(Cc1ccccc1)C(=O)c1csc(COC(=O)c2ccccc2)n1	14	1
CCOC(=O)c1c(NC(=O)C(Cl)(Cl)Cl)c(-c2ccc(OC)c(OC)c2)cn1Cc1ccccc1	12	9
O=C(NCCNc1nc(C2CC2)nc2cc(Cl)ccc12)Nc1ccc(Cl)cc1Cl	8	11
COc1ccc(C(=O)NCC(=O)N2CCCCCC2)cc1	5	3
CC(NC1CC2CC=CC21)c1ccc(-n2ccnc2)cc1 (stereo not drawn)	14	9
CC(C)NC(=O)NCCc1ccc(NC(=O)c2c(F)c(F)c(F)c(F)c2F)cc1	-5	-9
CCCSc1ncccc1C(=O)NCc1ccncc1	-6	-10
CN(Cc1ccco1)C(=O)c1ccc2c(c1)NC(=O)CCS2	4	2
Cc1cc(C)n(Cc2cccnc2)c1C(=O)NCc1cccc(C(F)(F)F)c1	23	34
Brc1ccc(C2CC(c3ccc4c(c3)OCO4)=Nc3nnnn32)cc1 (stereo not drawn)	6	4
CCOC(=O)C1CCCN(C(c2ccc(CC)cc2)C2Sc3nc(CC)nn3C2=O)C1 (stereo not drawn)	-1	7
NC(=O)c1cnc2n1CCN(C(=O)COc1ccccc1)C2	3	3
CC1CC(C)CN(C(=O)CN(C)S(=O)(=O)c2ccc(F)cc2)C1 (stereo not drawn)	1	-2
O=[N+]([O-])c1ccc(S(=O)(=O)Cl)cc1	4	0
COc1ccccc1NC(=O)CSc1ccc(-c2ccc(-n3cccn3)cc2)nn1	-9	-10
O=C1NC2(CCN(C(=O)c3ccc(Cl)cc3)CC2)Nc2cc(F)c(F)cc21	2	4
O=C(CCC1CCCN(C(=O)c2ccc3c(c2)OCO3)C1)NCc1ccc(F)c(F)c1 (stereo not drawn)	6	8
FC(F)(F)c1ccc(-c2nc(CSc3cc(Cl)ccc3Cl)cs2)cc1	2	-1
Cc1cc(C(=O)N2CCN(C3c4ccccc4CCc4ccccc43)CC2)n(C(C)(C)C)n1	4	10
O=C(c1[nH]cnc1-c1ccccc1)N1C[C@H](O)[C@@H](N2CCOCC2)C1	19	7
C=CCn1c(P(C)(=O)O)nc2ccccc21	3	-9
C=CCc1cccc2cc(C(=O)N3CCN(C)CC3)c(=O)oc12	-2	-8
CCOC(=O)c1cnc2cc(C(F)(F)F)ccc2c1Nc1ccc(S(=O)(=O)N2CCCC2)cc1	6	3
CCCn1c(C)cc(=O)[nH]c1=O	6	78
COCCN(Cc1ccccc1OS(=O)(=O)c1ccc(OC)cc1)C(=O)NC(C)C	-9	9
O=C(NCCN1CCN(C(=O)c2ccccc2Cl)CC1)C(=O)NCc1ccccc1	-12	-20
CCc1ccc(CN(C)Cc2nc(-c3cccc(Cl)c3)no2)nc1	-1	-5
CCc1nnsc1C(=O)NC(C)Cc1cccc(Cl)c1 (stereo not drawn)	0	-1
O=C(Nc1cccc(-c2ccc3nnc(-c4cccs4)n3n2)c1)C1CCCC1	-9	0
CCCN(CC(=O)Nc1ccc2c(c1)OCO2)C(C)c1ccccc1Br (stereo not drawn)	6	3
CS(=O)(=O)NCCC1CN(Cc2cc3ccccc3[nH]2)CCO1 (stereo not drawn)	8	5
Cc1nn(C)c(Cl)c1CNCCOc1ccc2c(c1)CCC2	-1	-1
CCOc1ccccc1NC(=O)N(Cc1ccc(OS(=O)(=O)c2ccc(F)cc2)cc1)C(C)CC (stereo not drawn)	37	33
COc1cccc(Cc2nsc(N3CCCN(C(=O)Nc4ccc(C)c(Cl)c4)CC3)n2)c1	12	16
CCCn1c(O)c(N=NC(=O)c2ccc(N)cc2)c2ccccc21	-5	-10
CCOc1ccc(CC(=O)Nc2c(C)nc3scc(C)n3c2=O)cc1	9	2
NC(=O)C1Cc2ccccc2N1C(=O)Nc1cccs1 (stereo not drawn)	-13	-18
CCCCn1nnnc1CSc1nnc(CC2CCS(=O)(=O)C2)o1 (stereo not drawn)	1	8
COC(=O)[C@@H](Cc1cccnc1)NC(=O)[C@@H]1CN(S(C)(=O)=O)CCN1S(=O)(=O)c1ccccc1	-7	-14
COc1ccc(OC)c(CNC(=O)c2sc3cc(F)ccc3c2Cl)c1	39	28
CCN1C(=O)/C(=C2\SC(=S)N(CCS(=O)(=O)O)C2=O)c2ccccc21	2	10
N#Cc1cn(-c2ccccc2)nc1N	7	7
O=C(COc1ccc(Br)cc1)N1CCN(S(=O)(=O)c2ccc3ccccc3c2)CC1	-1	2
O=C(NCc1cccc(-c2ncc(-c3ccc(F)cc3)[nH]2)c1)c1cccnc1Sc1ccccc1	8	15
CNC(=O)c1ccc(OCC2CCCO2)c(Br)c1 (stereo not drawn)	16	7
O=C(c1cccc(C(F)(F)F)c1)N(Cc1ccco1)Cc1cc2ccccc2o1	-6	-11
COc1cccc(CN2CCCC(NCc3ccncc3)C2)c1 (stereo not drawn)	9	5
Cc1cccc(S(=O)(=O)NC(=O)C2(C)CCN2C(=O)CCC2CCCC2)c1 (stereo not drawn)	3	6
CCNC(=O)Cn1cnc2c(nnn2C)c1=O	-1	4

Screening results as filed in PubChem.
